Screens: PubChem, National Center for Advancing Translational Sciences (NCATS)
VACV Venus inh: vaccinia inhibition (Venus reporter) | AID 720580 | Vaccinia virus Venus reporter expression, fluorescence | actives 0.46% (n = 330,000) | Potency, µM (top dose mostly 36.5 µM), for the others: top-dose activity change, negative = inhibition, most hits filed as inhibitors; active means well fitted inhibition curve with a large enough effect; inconclusive means small, poorly fitted or top-dose-only effect; inactive means no such curve, though single readings can be large or run the other way; tested in A549 cells; also: nearly all actives have a fitted effect of over 30% in size; inactives centre near -10
Vaccinia mCherry: vaccinia inhibition (mCherry reporter); Vaccinia virus mCherry reporter infection, fluorescence; about a quarter of the inactives have no number; Potency, µM (top dose mostly 36.5 µM), without a hit: at the highest dose activity change, negative = inhibition, usual class: inhibitors; actives 0.63% (n = 310,000); AID 720579; active = well fitted inhibition curve with a large enough effect; inconclusive = small, poorly fitted or top-dose-only effect; inactive = no such curve, though single readings can be large or run the other way; tested in A549 cells; also: nearly all actives have a fitted effect of over 35% in size; inactives centre near -10
* marks the source's active call; other numbers are inactive results; i = inactive; ? = inconclusive; nt = no result given; & = joins results of further samples. % is scaled to controls: 0 for no effect and ±100 for the full control effect; potency is read from the fitted curve at half-maximal effect.

mol,VACV Venus inh,Vaccinia mCherry
CCOc1ccc(S(=O)(=O)Nc2cccc(C(=O)N(C)CC(=O)Nc3ccc(OC)cc3)c2)cc1,-24%,-26%
COc1ccccc1NC(=O)CN1CCC(c2nc3ccc(C)cc3[nH]2)CC1,-19%,i
Cc1[nH]c2ccccc2c1C1(O)C(=O)N(Cc2ccc3c(c2)OCO3)c2ccccc21 (stereo not drawn),0%,-18%
CCC(=NCC1CCCO1)c1c(O)n(-c2ccc(Cl)cc2)c(=O)[nH]c1=O (stereo not drawn),1%,-5%
C=CCNc1cnn(CC(C)=O)c(=O)c1Br,5%,nt
Oc1cc(-c2ccccc2)c2ccccc2c1,-21%,-25%
COC(=O)/C(C#N)=C/c1c(N2CCN(c3ccc(OC)cc3)CC2)nc2c(C)cccn2c1=O,-23%,-6%
CCN(CC)c1ccc(C(=O)OCC(=O)N2CCCC2)cc1,-8%,-5%
Cn1nnnc1SCc1nnc(-c2ccccc2Br)o1,-17%,nt
O=C(c1ccc2c(c1)N(Cc1ccccc1)C(=O)c1ccccc1S2(=O)=O)N1CCOCC1,-9%,-11%
Cn1c(/C=C/c2cccc([N+](=O)[O-])c2)nc2ccccc2c1=O,-10%,i
COc1ccc(NC(=O)CCNS(=O)(=O)c2ccccc2F)cc1S(N)(=O)=O,-1%,-13%
CC(=O)CSc1nnc(Cc2ccc([N+](=O)[O-])cc2)o1,-6%,-17%
Cc1cc(C(=O)N(CCC#N)Cc2cccs2)no1,-7%,-23%
CNC(=O)C[C@H]1C(=O)N(c2ccccc2)C[C@@H]1C,-10%,i
CCCc1ccc(OCCNC(=O)C2CCCCC2)cc1,-10%,i
O=C(CNc1cccc([N+](=O)[O-])c1)N1CCN(S(=O)(=O)c2ccc(Cl)cc2)CC1,-26%,-10%
COc1ccc(CCNc2oc(COc3ccccc3Cl)nc2C#N)cc1OC,-22%,-28%
COc1ccc(OC)c(CNC(=O)c2cc3cc4ccc(OC)cc4nc3o2)c1,-5%,-14%
Cc1nn(Cc2ccccc2Cl)c2sc(C(=O)Nc3nccs3)cc12,-16%,i
Brc1ccc(CN2CCSCC2)cc1,-9%,i
C=CCN(C(=O)c1csnn1)C(C(=O)NCc1ccccc1)c1ccccc1F (stereo not drawn),9%,-8%
Cc1cc(C)cc(NC(=O)C(c2ccccc2)N2CCN(CC(=O)NC3CC3)CC2)c1 (stereo not drawn),-14%,-20%
COc1ccc(Nc2cc(C(=O)NC3CCC(C)CC3)c3ccccc3n2)cc1OC (stereo not drawn),-6%,-14%
C=CCn1c(SCCOC)nc2c1c(=O)[nH]c(=O)n2C,-6%,i
C=CCn1c(SCC(=O)/C(C#N)=C(\C)N)nnc1C1CCCCC1,-9%,-9%
CCN(C(=O)CCN1C(=O)/C(=C/c2ccccc2)SC1=S)C1CCS(=O)(=O)C1 (stereo not drawn),?,?
O=C(NCCC(=O)N(CCc1ccccc1)Cc1ccccc1)c1ccc(Br)cc1,-12%,i
COC(=O)CSc1nnc(CNC(=O)c2ccc(OC)cc2OC)n1C,2%,i
CCC1=[N+](CC(=O)c2ccc(C)cc2)CCn2c(C)ccc21,-23%,?
O=C(c1cc(-c2ccccc2)nn1-c1ccccc1)N1CCN(S(=O)(=O)c2c(F)cccc2F)CC1,-12%,i
C=CC(=O)c1ccc2ccccc2c1,?,-21%
Cc1ccc(OCC(O)Cn2nc(C)cc2C)cc1 (stereo not drawn),-1%,-14%
CC(C)Cn1c2c(c(O)c(C(=O)Nc3ccc(F)cc3)c1=O)CCCC2,-3%,i
CCC(CCc1ccccn1)C(=O)c1ccccc1 (stereo not drawn),-8%,-12%
O=C(c1cccc2ccccc12)N1CCN=C1SCc1ccc([N+](=O)[O-])cc1,-8%,-8%
Cc1sc2nc(C3CC3)nc(NCCNS(=O)(=O)c3ccccc3)c2c1C,-12%,-18%
O=C(NCc1ccon1)c1ccc(-c2csc3ccccc23)nc1N1CCC(N2CCCC(CO)C2)CC1 (stereo not drawn),12%,-6%
O=C(NCC(=O)N(CC1CCCO1)C(C(=O)NC1CCCC1)c1cccnc1)c1ccco1 (stereo not drawn),-6%,-13%
CCOc1cc(NC(=O)c2ccccn2)c(OCC)cc1NC(=O)c1ccccc1,1%,i
CN(C)C(CNC(=O)C1CCN(S(=O)(=O)c2cccc(Cl)c2Cl)CC1)c1ccccc1 (stereo not drawn),-14%,-11%
CCCCC1=CC2=CC(=O)C(C)(OC(=O)CC)C(=O)C2=CN1CC(C)C (stereo not drawn),-18%,i
CCOc1ccc(NC(=O)Cn2cc(C(=O)c3ccc(CC)cc3)c(=O)c3ccc(C)nc32)cc1,5%,-3%
NS(=O)(=O)c1ccc(NC2(C(=O)O)CCCC2)cc1,-10%,i
N#C/C(=C\c1ccc[nH]1)C(=O)Nc1ccccc1F,-15%,i
CCN(CC(=O)NCc1cccs1)C(=O)/C=C/c1ccc(F)cc1,-6%,i
COc1ccc(C2=NS(=O)(=O)N(C)C(C(=O)Nc3ccc4c(c3)OCO4)=C2)cc1,?,-11%
CCOC(=O)C1(CC2CCCCO2)CCN(Cc2nc(C(C)C)cs2)CC1 (stereo not drawn),1%,-21%
COc1ccc2oc(=O)c(C(=O)N3CCN(c4ccccc4C)CC3)cc2c1,-9%,i
Cc1ccc(-n2ccnc2SCC(=O)O)cc1C,-7%,-11%
CN(Cc1ccccc1)C(=O)CSc1cc(=O)n(C)c2ccccc12,-12%,i
COC(=O)c1ccc(NC(=O)CC2C(=O)N(c3ccc(Cl)cc3)C(=O)N2Cc2ccco2)cc1 (stereo not drawn),-12%,-9%
C/C(=N\NC(=S)NC(C)C)c1ccc(Cl)s1,-28%,-18%
COc1cccc(-c2ccc(C3=CC(=O)CC(C)(C)C3=O)cc2)c1OC,4%,i
COc1cccc(OCC(=O)Nc2ccc(OC)c(OC)c2)c1,-15%,-10%
O=C(/C=C/c1ccccc1)OCCCN=C1NS(=O)(=O)c2ccccc21,-5%,-10%
CC(=O)Nc1c2c(nn1-c1ccccc1C)CS(=O)(=O)C2,-11%,-2%
N#C/C(=C(\O)C(F)(F)F)c1nnc2n1CCCCC2,-1%,i
NC(=O)CSc1nnc2sc3ccccc3n12,-9%,i
COc1cc(NS(=O)(=O)c2ccc(NC(=O)/C=C/c3cccc([N+](=O)[O-])c3)cc2)ncn1,-12%,-6%

Compound profiles (already shown). Order of values: VACV Venus inh, Vaccinia mCherry
`CCOC(=O)C1(CC2CCCCO2)CCN(Cc2nc(C(C)C)cs2)CC1` (stereo not drawn) is entered as 1%, -21%
`COc1ccc2oc(=O)c(C(=O)N3CCN(c4ccccc4C)CC3)cc2c1` is entered as -9%, i
`COc1cccc(-c2ccc(C3=CC(=O)CC(C)(C)C3=O)cc2)c1OC` is entered as 4%, i
`COc1cccc(OCC(=O)Nc2ccc(OC)c(OC)c2)c1` is entered as -15%, -10%
`CN(Cc1ccccc1)C(=O)CSc1cc(=O)n(C)c2ccccc12` is entered as -12%, i

Going on with the list:
mol,VACV Venus inh,Vaccinia mCherry
O=S(=O)(Nc1cccc(-c2ccc(N3CCCCCC3)nn2)c1)c1ccccc1,-28%,?
CC1(c2nnnn2Cc2ccccc2)CCC(=O)N1CCc1c[nH]c2ccccc12 (stereo not drawn),4%,-11%
Oc1ccccc1C1=NCCNC(C(F)(F)F)=C1,-12%,-4%
O=C(NC1CCC(O)CC1)c1ccc(-c2ccc(Cl)cc2)o1 (stereo not drawn),-29%,-11%
CC(C)OC(=O)CSc1nc(-c2ccc(F)cc2)cc(C(F)(F)F)n1,-3%,-12%
Cc1ccc(OC(=O)c2cc(-c3ccccc3)nc3ccc(C)cc23)cc1,-8%,-13%
CC(C)N(C(=O)[C@H]1C[C@H](CC(=O)NC(C)(C)C)C(=O)N2CCc3c([nH]c4cc(-c5ccco5)ccc34)[C@]12C)C(C)C,-28%,-11%
Cc1cccc(-n2ncc3c(N4CCOCC4)ncnc32)c1,-23%,-3%
O=C(NN=Cc1ccc(F)cc1)c1cccc(S(=O)(=O)N2CCCC2)c1,-7%,-2%
Cc1ccc(CSCC(=O)N2CCOCC2)cc1,-4%,-13%
Cc1cccc(C(=O)Nc2c(C(=O)N3CCN(C)CC3)cnn2-c2ccccc2)c1,1%,1%
C(=C\c1ccnc2ccccc12)/c1ccnc2ccccc12,-7%,i
COc1cc([N+](=O)[O-])cc(/C=N/NC(=O)C(C)Nc2cccc3ccccc23)c1O (stereo not drawn),-22%,-14%
Cc1cc(C(=O)CSc2nnc(Nc3ccccc3)s2)c(C)n1CC1CCCO1 (stereo not drawn),-14%,-12%
COc1ccc(N(C(=O)c2ccccc2)S(=O)(=O)c2cccs2)cc1,-10%,-15%
O=C(NCCO)C(=O)NCC1CCCN1S(=O)(=O)c1cccs1 (stereo not drawn),-9%,i
c1ccc2c(c1)[nH]c1nc3nncn3nc12,-4%,-7%
Cc1ccc2nc(Cc3ccc(N)cc3)[nH]c2c1,-15%,?
N#Cc1ccc(OCC(=O)OCCCOC(=O)COc2ccc(C#N)cc2)cc1,-5%,i
COc1ccc(CNC(=O)CCCn2nc(C)c3sc4ccccc4c3c2=O)cc1OC,-11%,-11%
Cc1cc(-c2ccc(C)c(S(=O)(=O)NCc3cccc(Br)c3)c2)on1,-6%,i
CCN(CC)C(=O)c1ccc(NC(=O)c2cccc(S(=O)(=O)N3CCN(Cc4ccccc4)CC3)c2)cc1,?,-18%
OCC1(CC2CCCCO2)CCN(Cc2ccccc2-c2ccco2)CC1 (stereo not drawn),-9%,-17%
CC(C)c1cc(CNC(=O)C2CCC(=O)N(Cc3ccccc3F)C2)on1 (stereo not drawn),0%,-10%
Cc1ccc(NC(=O)N2CCc3ccccc3C2)cc1,-22%,-25%
O=C(NNC(=S)NCc1ccccc1)c1ccccc1OC(F)F,-13%,-24%
CCOc1ccc(/C=N/NC(=O)c2cc3c(OC)cccc3[nH]2)cc1,?,?
CC12CC3(C)CC(C)(C1)CC(C(=O)NC(=S)N1CCOCC1)(C2)C3,-22%,i
COC(=O)CNC(=O)C(CCSC)NC(C)=O (stereo not drawn),-3%,i
Cc1cccc(N(CC(=O)NCCSCc2ccccc2)S(=O)(=O)c2ccccc2)c1C,-16%,-19%
O=C1C2C3C=CC(CC3)C2C(=O)N1/N=C/c1ccc(O)c(O)c1 (stereo not drawn),-10%,i
COc1ccc(-c2nc(NC(=O)c3n[nH]c(=O)c4ccccc34)sc2C)cc1,0%,-3%
CN(C)CCCn1c(SCC(=O)Nc2sc3c(c2C#N)CCCC3)nnc1-c1ccncc1,-4%,-14%
Cn1cc(C(F)(F)F)nc1-c1ccc(OCC(O)CNCCOc2ccc(O)c(C(N)=O)c2)cc1 (stereo not drawn),-11%&-11%,-19%&-1%
CCOC(=O)CSc1nnc(-c2ccccc2)c(-c2ccccc2)n1,-9%,i
Cn1ccc(C(=O)OCC(=O)Nc2ccccc2Cl)n1,-18%,?
CN1C(=O)c2ccc(C(=O)NCc3ccccc3)cc2C1=O,-3%,-12%
COC(=O)c1sc(NC(=O)/C=C/c2ccc(C)o2)nc1C,-5%,-20%
Cn1c(SCC2CCCO2)nnc1C1CCN(Cc2ccco2)CC1 (stereo not drawn),-8%,-16%
OCCN(CCCn1c(C(F)(F)F)nc2ccccc21)c1nc(CN2CCCCC2)cs1,-14%,-14%
c1ccc(Oc2ccc(-c3ccnc4nc(N5CCOCC5)nn34)cc2)cc1,-27%,-23%
Cc1ccc(Sc2c(C#N)c(-c3ccccc3)nn2C)cc1,-22%,-28%
Cc1csc(NC(=O)CSc2nnc(-c3cccnc3)o2)n1,-5%,-13%
Cc1ccc(N(O)C(=O)NCCCCNC(=O)N(O)c2ccc(C)cc2)cc1,-10%,-13%
COc1ccccc1CNC(=O)c1cc2c(s1)-c1ccccc1OC2,-21%,-18%

Brought forward from above: two compounds, followed by the next part.
mol,VACV Venus inh,Vaccinia mCherry
Cc1ccc(N(O)C(=O)NCCCCNC(=O)N(O)c2ccc(C)cc2)cc1,-10%,-13%
COc1ccccc1CNC(=O)c1cc2c(s1)-c1ccccc1OC2,-21%,-18%
NC(=O)C1CCN(C(=O)c2cc(-c3ccc(Cl)cc3)nc3ccccc23)CC1,-3%,-7%
CC(C)C[C@@H](C=O)NC(=O)[C@H](CC(C)C)NC(=O)[C@H](CC(C)C)NC(=O)OCc1ccccc1,-10%,i
CCOC(=O)N1CCN(C(=O)C2CCN(C(=O)c3ccc(C(C)(C)C)cc3)CC2)CC1,-12%,-11%
CCCCN(CC)CCCNC(=O)c1c(C)oc2ncnc(N3CCOCC3)c12,-18%,-15%
O=S(=O)(c1ccccc1)N1CCN=C1SCc1ccc(Cl)c(Cl)c1,?,-13%
CC(=O)c1cccc(NC2=NCC(C)S2)c1 (stereo not drawn),-28%,-10%
CC(C)c1ccc(NC(=O)C2Cc3ccccc3N2C(=O)c2ccccc2)cc1 (stereo not drawn),-15%,-16%
